KCNQ2 enhance = potentiators of rat KCNQ2 potassium channel; 310,000 tested, 0.54% active; CHO-K1 KCNQ2, FluxOR thallium flux fluorescence; active compounds read high; O88943; B-score at 10 µM;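 active = fluorescence ratio B-score at least 3 SD of library B-scores, with initial fluorescence B-score within 3 SD, cut at about 5.3 in these data; same plate scores as AID 2156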;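 note: B-score of peak minus minimum over baseline fluorescence ratio after K+ and Tl+ stimulus; positive B-score means potentiation of KCNQ2 with more thallium influx and brighter signal; only the inactives scoring about 0 or higher are listed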
Target sequence (O88943 whole entry, looked up): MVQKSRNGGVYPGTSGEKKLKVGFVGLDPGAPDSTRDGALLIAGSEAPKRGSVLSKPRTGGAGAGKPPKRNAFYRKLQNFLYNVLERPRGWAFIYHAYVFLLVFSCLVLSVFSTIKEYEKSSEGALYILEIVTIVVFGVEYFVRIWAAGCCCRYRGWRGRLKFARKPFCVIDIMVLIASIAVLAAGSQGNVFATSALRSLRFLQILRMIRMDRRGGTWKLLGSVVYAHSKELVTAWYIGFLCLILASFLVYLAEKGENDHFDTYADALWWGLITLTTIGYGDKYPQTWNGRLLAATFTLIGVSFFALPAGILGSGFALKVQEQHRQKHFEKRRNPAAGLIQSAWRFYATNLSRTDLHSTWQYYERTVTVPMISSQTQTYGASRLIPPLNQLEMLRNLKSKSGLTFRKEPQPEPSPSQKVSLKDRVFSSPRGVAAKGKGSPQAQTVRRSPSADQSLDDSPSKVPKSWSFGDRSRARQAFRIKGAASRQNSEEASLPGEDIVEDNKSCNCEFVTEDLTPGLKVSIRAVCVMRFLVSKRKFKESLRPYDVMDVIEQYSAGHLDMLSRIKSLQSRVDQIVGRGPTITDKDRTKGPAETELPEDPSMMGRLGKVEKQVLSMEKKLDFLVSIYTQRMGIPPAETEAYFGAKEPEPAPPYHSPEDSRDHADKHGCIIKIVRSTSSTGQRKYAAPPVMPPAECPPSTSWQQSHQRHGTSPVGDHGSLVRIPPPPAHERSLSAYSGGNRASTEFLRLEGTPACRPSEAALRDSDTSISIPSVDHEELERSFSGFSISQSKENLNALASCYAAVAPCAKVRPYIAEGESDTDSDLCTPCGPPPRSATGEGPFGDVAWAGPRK
KCNQ2 enhance baseline = also measured in KCNQ2 enhance; calls as there; B-score; compound at 10 µM; measured here: initial fluorescence intensity artifact check;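 brightness before thallium and not channel activity; 0 = typical well and far values either way flag optical interference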
* = called active by the depositor. This is a subset. The share of hits here may be higher or lower than overall.

Every second line gives: KCNQ2 enhance	KCNQ2 enhance baseline
1) COCCn1c(SCC(=O)NC2CCCCC2)nnc1-c1ccncc1
    0.39	-0.78
2) O=C(CCCOc1ccc(Cl)cc1Cl)NCc1ccncc1
    1.6	-0.78
3) Cc1c(Cl)cccc1NC(=O)CCN1CCN(C)CC1
    1.28	-1.15
4) CCc1cc(C(=O)O)c(NC(=O)C(c2ccccc2)c2ccccc2)s1
    1.28	0.27
5) O=C(O)CCC(=O)OC1CC2CCC1C2 (centres undefined)
    1.11	-0.23
6) COc1ccc(C(NC(=O)CNC(C)=O)C(=O)Nc2ccc(C(C)C)cc2)cc1 (centres undefined)
    1.61	-1.14
7) CN(Cc1ccccc1)CC(O)COc1ccc(CNCCc2ccncc2)cc1 (centres undefined)
    1.06	-0.56
8) CC(=O)c1cccc(NC(=O)NCCc2ccc(Cl)cc2)c1
    1.52	0.26
9) CCOc1ccc(NC(=O)C(C)N2C(=O)c3ccccc3S2(=O)=O)cc1 (centres undefined)
    0.76	1.92
10) CC(/C=C/c1ccco1)=N\NC(=O)c1cccnc1
    0.43	0.7

6 entries from above, screen by screen.
#3 Cc1c(Cl)cccc1NC(=O)CCN1CCN(C)CC1
#4 CCc1cc(C(=O)O)c(NC(=O)C(c2ccccc2)c2ccccc2)s1
#5 O=C(O)CCC(=O)OC1CC2CCC1C2 (centres undefined)
#6 COc1ccc(C(NC(=O)CNC(C)=O)C(=O)Nc2ccc(C(C)C)cc2)cc1 (centres undefined)
#7 CN(Cc1ccccc1)CC(O)COc1ccc(CNCCc2ccncc2)cc1 (centres undefined)
#8 CC(=O)c1cccc(NC(=O)NCCc2ccc(Cl)cc2)c1

assay / compound	3	4	5	6	7	8
KCNQ2 enhance	1.28	1.28	1.11	1.61	1.06	1.52
KCNQ2 enhance baseline	-1.15	0.27	-0.23	-1.14	-0.56	0.26

(further entries)
Every second line gives: KCNQ2 enhance	KCNQ2 enhance baseline
11) C=CCc1ccc(OCC(O)CN2CCN(Cc3ccccc3)CC2)c(OC)c1 (centres undefined)
    0.65	-0.54
12) C/C(=N\NC(=O)c1cccc(N/N=C(\C)c2ccco2)c1)c1ccco1
    1.42	-0.23
13) C=CCc1cccc2cc(C(=O)NC)c(=O)oc12
    0.98	1.74
14) CCCCN(C)CCCNC(=O)Cn1c(=O)sc2ccccc21
    1.78	-1.26
15) Cc1ccc(O)c(NC(=O)COc2cc(C)ccc2C)c1
    0.37	0.13
16) CCOC(=O)c1cc2sc(C)cc2n1CC(=O)N1CCOCC1
    0.02	-0.57
17) CCOC(=O)/C=C/C(=O)OCC(=O)Nc1ccc(Cl)cn1
    0.65	1.11
18) CCOC(=O)c1sc2nc(C)cc(-c3ccccc3)c2c1N
    0.58	1.87
19) Cc1coc2c(C)c3oc(=O)c(CCC(=O)NCCN4CCOCC4)c(C)c3cc12
    0.16	0.4
20) Cc1nc(N2CCN(c3ccccc3)CC2)[nH]c(=O)c1CCC(C)C
    0.91	-0.24
21) C#CCOCCOCCOCCNc1nc(N2CCN(C(=O)[C@H](C(C)C)n3cc(CCO)nn3)CC2)nc(N2CCN(C(=O)[C@H](CCCCN)n3cc(CCCC)nn3)CC2)n1
    1.29	1.1
22) Cc1ccc(N2C(=O)C3NN=C(C(=O)OCc4ccccc4)C3C2=O)cc1 (centres undefined)
    0.11	0.84
23) COc1ccc(C2CC(c3ccc(C)cc3)=NN2C(=O)c2ccccc2)cc1 (centres undefined)
    0.67	0.01
24) O=C(c1cccc(Br)c1)c1conc1C(=O)c1ccco1
    0.02	-0.04
25) CC1CCN(C(=O)/C=C/c2ccc(C(C)(C)C)cc2)CC1
    0.04	2.82
26) CN1C(=O)C(C)(C)c2cc(S(=O)(=O)NCc3ccc(C(=O)NCc4ccco4)cc3)ccc21
    0.03	-0.3
27) COC(=O)c1cscc1S(=O)(=O)Cc1ccccc1
    0.06	-0.79
28) COc1ccccc1NC(=O)c1ccc(NC(=O)CN2CCN(C(=O)c3ccco3)CC2)cc1
    0.98	-0.85
29) CCCC(C(=O)Nc1ccc(S(=O)(=O)Nc2ncccn2)cc1)c1ccccc1 (centres undefined)
    1.17	1.63
30) COc1cc(CC(=O)OCC(=O)Nc2cc([N+](=O)[O-])ccc2Cl)cc(OC)c1OC
    1.18	1.18

Arranged by SMILES length (smallest number first): some entries from above.
Every second line gives: KCNQ2 enhance	KCNQ2 enhance baseline
27) COC(=O)c1cscc1S(=O)(=O)Cc1ccccc1
    0.06	-0.79
25) CC1CCN(C(=O)/C=C/c2ccc(C(C)(C)C)cc2)CC1
    0.04	2.82
30) COc1cc(CC(=O)OCC(=O)Nc2cc([N+](=O)[O-])ccc2Cl)cc(OC)c1OC
    1.18	1.18

The results go on.
Every second line gives: KCNQ2 enhance	KCNQ2 enhance baseline
31) CNC(=O)C12CCC(C)(c3nc4cc(C)c(C)cc4nc31)C2(C)C (centres undefined)
    0.93	-0.49
32) Cc1ccc(-c2c(C(=O)N/N=C/c3ccncc3)nnn2-c2nonc2N)cc1
    0.17	-1.19
33) Cc1cccc(NC(=O)C23CCC(C)(C2Br)C3(C)C)c1 (centres undefined)
    10.5*	0.41*
34) NCCSC1CC(=O)N(c2ccc(Cl)c(Cl)c2)C1=O (centres undefined)
    0.68	-0.65
35) COc1ccc2nc(C)cc(SCC(=O)N/N=C/c3ccccc3)c2c1
    0.25	2.81
36) C/C=C(/C)C(=O)Nc1cccc(C2=NOC3(C2)C[C@@H](C(N)=O)N(C(=O)CC)C3)c1 (some centres undefined)
    0.13	0.76
37) Cc1nnc(NC(=O)CSc2nnc(CNC(=O)c3ccccc3)o2)s1
    0.06	0.11
38) COc1cccc2cc(C(=O)CS(=O)(=O)c3ccc(C)cc3)c(=O)oc12
    0.18	0.71
39) S=C(NCc1ccncc1)Nc1ccc(Br)cc1Cl
    0.33	-0.36
40) Nc1c(C(=O)N2CCCCC2)sc(=S)n1-c1ccccc1
    0.08	-0.43
41) O=C(Nc1cccc(F)c1)NC1CC2CCCC(C1)N2C1CC1 (centres undefined)
    1.87	-1.95
42) COc1ccc(OC)c(NC(=O)C2CCCN(S(=O)(=O)c3cccc4nsnc34)C2)c1 (centres undefined)
    0.3	-0.64
43) COc1ccc(C(C(=O)NC2CCCC2)N(C(=O)c2snc(-c3ccc(F)cc3)c2N)c2ccccc2)cc1 (centres undefined)
    1.44	0.08
44) Cc1cccc(C2CC(c3ccccc3)Nc3ncnn32)c1 (centres undefined)
    1.08	-1.75
45) O=C(Cn1nnc(-c2ccccc2NC(=O)C2CC2)n1)NC1CCCCC1
    0.98	0.71
46) CCC(C(=O)Nc1cc(C)nn1-c1nc(C)cc(C)n1)c1ccccc1 (centres undefined)
    0.01	0.81
47) CCO[C@@H]1OC(C(=O)NCc2ccccc2)=C[C@H](C)[C@H]1CCCO
    0.45	-0.06
48) C(=N\N1CCN(c2ccccn2)CC1)/c1ccccn1
    0.26	-0.96
49) COc1cc(N/C(N)=N/c2nc(C)cc(C)n2)cc(OC)c1
    0.27	1.46
50) CCn1c(SCC(=O)N2CCOCC2)nc(O)cc1=O
    1.75	-0.84
51) Cc1ccc(NC(=O)CCN2CCC(C)CC2)cc1
    2.4	2.04
52) Nc1nc(CCl)nc(N(c2ccccc2)c2ccccc2)n1
    1.37	-2.03
53) O=C(Nc1cc(C(F)(F)F)ccc1-n1cncn1)c1ccc(Cl)cc1
    0.02	0.1
54) O=C(NC1CC1)c1ccc2c(c1)N(Cc1ccccc1)CCS2
    0.71	0.83
55) O=C(Nc1ccc(-c2nc3ccccc3o2)c(O)c1)c1cc(-n2cnnc2)ccc1Cl
    0.77	-1.01
56) Cc1cc(C)c2c(CN3CCN(Cc4ccccc4)CC3)cc(=O)oc2c1
    1.19	-0.52
57) O=S(=O)(c1ccc(NC(=S)NC2CC2)cc1)N1CCOCC1
    2.87	1.2
58) CN1CCN(c2ncc(CN3C(=O)c4ccccc4C3=O)s2)CC1
    0.06	-0.04
59) CC(=O)NC1(c2nnnn2CCOC(=O)Nc2ccc(Cl)cc2)CCCC1
    1.59	0.4
60) CCOc1ccc(CCNC(=O)C2CCN(c3nnc(-n4cccc4)s3)CC2)cc1
    1.76	0.51
61) CC(=O)Nc1ccc(C(=O)OCC(=O)Nc2ccccc2Sc2ccccc2)cc1
    0.76	1.42
62) CCCCC(=O)Nc1cc(C)c2c(=O)oc3ccccc3c2n1
    0.16	0.08
63) CC1(C)CC(=O)C(C=NC(CCC(N)=O)C(=O)O)=C(O)C1 (centres undefined)
    0.54	0.14
64) O=C(O)CCCn1cc(NC(=O)c2c(F)cccc2F)cn1
    0.52	1.97
65) CCS(=O)(=O)Nc1cccc(-c2nc3cccnc3s2)c1
    1.86	0.66
66) COc1ccc(OC)c(NC(=O)Nc2c(O)ccc3ccccc23)c1
    7.77*	-1.94*
67) CCn1c2ccc(F)cc2c2nnc(SCCN3CCCCC3)nc21
    0.08	0.06
68) COc1ccc(OC)c(S(=O)(=O)Nc2ccc3[nH]c(=O)[nH]c3c2)c1
    1.1	0.06
69) Cc1ccc(/C([O-])=C(/C(=S)NCCN2CCOCC2)[n+]2ccccc2)cc1[N+](=O)[O-]
    1.75	-1.17
70) Cc1nonc1CN(C)C(=O)CC1C(=O)NCCN1Cc1ccccc1F (centres undefined)
    0.52	-1.13
71) Cc1ccc(C)c(NC(=O)CSc2n[nH]c(-c3ccncc3)n2)c1
    0.01	-0.63
72) CN(C)S(=O)(=O)c1cccc(NC(=O)COC(=O)c2c[nH]c(=O)[nH]c2=O)c1
    0.61	-2.51
73) COc1ccc([C@@H]2CC(=O)c3c(O)cc(O[C@@H]4OC(CO[C@@H]5OC(C)[C@H](O)[C@H](O)C5O)[C@@H](O)[C@@H](O)C4O)cc3O2)cc1O (some centres undefined)
    0.26	0.02
74) CCC1CCCCN1CCCNC(=O)CS(=O)Cc1nc(-c2ccc(OC)c(OC)c2)oc1C (centres undefined)
    0.53	0.76
75) O=C(c1ccc(OCC2CCCO2)cc1)N1CCN(c2ccccc2)CC1 (centres undefined)
    1.63	-1.67
76) COCCNC(=O)COC(=O)c1cccnc1SC
    1.92	-0.54
77) Cc1cccc(OCCn2c(NC(=O)c3ccco3)nc3ccccc32)c1
    1.39	-0.49
78) Cc1ccc(CNC(=O)[C@H](C)N2C(=O)N3CCc4c([nH]c5ccccc45)[C@@]3(C)C2=O)cc1
    0.06	-1.4
79) COCCn1c(SCc2nc3ccccc3c(=O)[nH]2)nnc1-c1ccncc1
    0.33	1.49
80) COc1ccc(CCNC(=O)CCn2c(=O)c3cccn3c3cccnc32)cc1OC
    0.68	1.57

Carrying on.
Every second line gives: KCNQ2 enhance	KCNQ2 enhance baseline
81) COc1ccc(C(=O)Nc2nnc(Cc3ccc(OC)c(OC)c3)s2)c(OC)c1
    0.04	1.67
82) C=CCNc1nc(-c2sc(NC(C)=O)nc2C)cs1
    0.14	-0.29
83) COc1ccc(C(=O)NC(=S)NCCc2ccccc2)cc1
    0.07	0.13
84) CCN(C(=O)CN1CCOCC1)c1c(N)n(Cc2ccccc2)c(=O)[nH]c1=O
    0.92	-3.05
85) COc1ccc(N2CCN(S(=O)(=O)c3c(C)nc4scc(C)n4c3=O)CC2)cc1
    1.1	-1.43
86) CN(C)S(=O)(=O)N1CCC(Oc2cccc(C(=O)NC3CCOC3)c2)CC1 (centres undefined)
    0.82	-0.65
87) CCOC(=O)C1CCN(C(=O)COC(=O)c2ccccc2C(=O)c2ccc(Cl)cc2)CC1
    0.3	0.1
88) Cc1ccc(NC(=O)c2cccs2)cc1S(=O)(=O)N(C)C
    0.22	-1.31
89) C=CCN(CC=C)C(=S)NC(=O)/C=C/c1ccc(OC)cc1
    2.98	-0.58
90) O=[N+]([O-])c1ccc(COc2ccc(-c3[nH]ncc3-c3ccccc3)c(O)c2)cc1
    1.48	-0.24
91) O=C(COS(=O)c1ccccc1)Nc1cc(Cl)ccc1N1CCOCC1 (centres undefined)
    0.38	-0.64
92) Cc1nn(-c2ccccc2)c2[nH]c(=O)c(CNc3ccc(N4CCOCC4)cc3)cc12
    1.08	-1.3
93) CCN1CCN(CCC(=O)Nc2ccccc2OC)CC1
    0.07	-0.84
94) O=C(O/N=C1/CCCc2occc21)c1ccc(Cl)cc1Cl
    0.65	-0.02
95) Cn1c(=O)c2[nH]c(N3CCCCC3)nc2n(C)c1=O
    1.02	0.24
96) CC(C)(C)c1ccc(C(=O)c2c[nH]c(C(=O)NCCCN3CCOCC3)c2)cc1
    0.26	-0.22
97) Cc1ccc(NC(=O)c2c(F)cccc2Cl)cc1NS(C)(=O)=O
    0.12	0.12
98) N#C/C(=C/c1ccc(-c2ccc(S(N)(=O)=O)cc2)o1)C(=O)Nc1ccccc1
    0.73	-2.09
99) CC(=O)Nc1ccc(C(=O)NNC(=O)c2cccc(C)c2)cc1
    0.12	0.36
100) CC(=O)NS(=O)(=O)c1ccc(N/C(N)=N/c2nc(C)cc(C)n2)cc1
    0.43	0.26
101) CC(C)(C)NC(=O)NC(=O)CN1CCN(S(=O)(=O)c2ccc3c(c2)OCCO3)CC1
    0.25	0.42
102) CSc1nc2sc3c(c2c(=O)[nH]1)CCCC3
    1.73	-1.23
103) Cc1ccc(C(=O)Nc2ccc(N3CCCC3)cc2)cc1
    1.5	-0.11
104) Cc1ccc(S(=O)(=O)CCc2ccncc2)cc1
    0.85	1.31
105) COc1ccc(OCC(=O)N/N=C2\CCc3ccccc32)cc1
    0.88	1.28
106) Cc1cccc(OCC(=O)Nc2ccc(S(=O)(=O)N3CCN(C)CC3)cc2)c1
    0.21	0.07
